Screening data as filed in PubChem BioAssay.
MLL AF4-AF9 inh: inhibitors of AF4 peptide binding to AF9, primary screen, biochemical, AlphaScreen, biotin-AF4 peptide, FLAG-AF9, single point | Protein AF-9 (Homo sapiens), P42568 | inhibition, % at 10 µM | 350,000 tested, 0.47% active;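 active = every replicate reaching a set inhibition limit, whatever the replicate mean, cut at about 25% in these data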;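 also: 0% = plate neutral control median and 100% = total signal loss; the record names both 10 and 1 µM as test concentration; the first replicate is given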
Target sequence (P42568 whole entry, looked up): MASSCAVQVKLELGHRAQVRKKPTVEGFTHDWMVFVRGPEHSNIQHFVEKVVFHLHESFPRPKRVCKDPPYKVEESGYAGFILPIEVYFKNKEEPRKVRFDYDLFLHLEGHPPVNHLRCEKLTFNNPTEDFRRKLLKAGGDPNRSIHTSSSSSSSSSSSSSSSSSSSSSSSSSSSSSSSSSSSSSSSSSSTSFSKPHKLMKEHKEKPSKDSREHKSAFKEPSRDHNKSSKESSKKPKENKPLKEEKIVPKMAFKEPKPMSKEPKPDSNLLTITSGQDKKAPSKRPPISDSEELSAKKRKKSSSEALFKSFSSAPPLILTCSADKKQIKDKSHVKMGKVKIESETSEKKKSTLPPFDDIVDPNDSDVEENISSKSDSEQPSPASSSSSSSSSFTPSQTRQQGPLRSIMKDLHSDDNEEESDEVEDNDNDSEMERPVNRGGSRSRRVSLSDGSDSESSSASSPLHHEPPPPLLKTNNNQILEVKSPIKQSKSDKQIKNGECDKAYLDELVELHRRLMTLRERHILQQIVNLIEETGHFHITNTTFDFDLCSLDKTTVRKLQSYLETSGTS
FGF22 binding: binders of human FGF22 protein, primary screen, FGF22 synaptogenesis inhibitor project, biophysical, thermal shift, single point. recombinant FGF22 thermal shift, SYPRO orange fluorescence; percent of sucrose octasulfate shift, DMSO zero. calls only at 9.99 µM. 340,000 tested, 1.5% active;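 active = melting point raised past a set limit in the mean and every replicate; three in four hits are not shown here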
Target sequence (Q9HCT0 whole entry, looked up): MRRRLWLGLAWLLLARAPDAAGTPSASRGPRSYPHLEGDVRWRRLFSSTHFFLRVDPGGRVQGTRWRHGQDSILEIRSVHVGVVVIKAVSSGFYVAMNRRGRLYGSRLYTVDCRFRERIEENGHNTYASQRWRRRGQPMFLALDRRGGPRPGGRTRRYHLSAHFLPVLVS
An asterisk follows results filed as active; i = inactive. Not all compounds are listed, so the mix of outcomes need not match the whole.

smiles | MLL AF4-AF9 inh | FGF22 binding
COCCN1C[C@@H](CO)O[C@@H](n2cnc3c(N4CCOCC4)ncnc32)C1 | -0.5 | i
Cc1ccc(S(=O)(=O)N(C)C[C@@H]2Oc3cc(C#Cc4ccncc4)ccc3S(=O)(=O)N([C@@H](C)CO)C[C@H]2C)cc1 | 2.1 | i
CC(C)(C)Nc1c(C2CCNCC2)nc2c(OCc3ccccc3)cccn12 | 12.1 | i
COc1ccc(C#Cc2ccc3c(c2)[C@]2(C(=O)N3)[C@H](C(=O)N3CCc4cc(OC)c(OC)cc4C3)[C@H]3C(=O)O[C@H](c4ccccc4)[C@H](c4ccccc4)N3[C@@H]2c2ccc(OCCO)cc2)cc1 | -1.6 | i
CC(C)CNC(=O)[C@@H]1c2ccccc2C(=O)N(CC23CC4CC(CC(C4)C2)C3)[C@H]1c1ccc(CO)cc1 | -9.0 | i
O=C(C[C@H]1CC[C@@H]2NC[C@@H](O)COC[C@H]2O1)Nc1nccs1 | 1.3 | i
COCC1=C([C@H](O)c2ccccc2)[C@H](CO)[C@@H]2C(=O)N(C)C(=O)[C@@H]2C1 | -0.4 | i
CN(C)CC#Cc1cccc(-c2nc(C(=O)N[C@@H]3CCN(Cc4ccccc4)C3)cc3c2[C@H](CCO)N(S(=O)C(C)(C)C)C3)c1 (some centres not stated) | 16.0 | i
O=C1NC[C@@H]2CCCN2C1=O | -7.5 | i
COCCOC(=O)N1C(=O)[C@@]2(c3ccccc31)[C@H](c1ccc(O)cc1)N1[C@H](c3ccccc3)[C@H](c3ccccc3)OC(=O)[C@H]1[C@@H]2C(=O)N1CCc2cc(OC)c(OC)cc2C1 | 0.0 | i
O=C(c1ccccc1F)N1N=C(C(F)(F)F)CC1(O)c1ccccc1 (configuration not stated) | 3.0 | i
COc1ccc(C#Cc2ccc3c(c2)[C@]2(C(=O)N3)[C@H](c3ccccc3OCCO)N3[C@H](c4ccccc4)[C@H](c4ccccc4)OC(=O)[C@H]3[C@@H]2C(=O)N2CCCCCCC2)cc1 | 2.2 | i

Six compounds out of the list, ordered by count of non-hydrogen atoms, highest first:
smiles | MLL AF4-AF9 inh | FGF22 binding
CN(C)CC#Cc1cccc(-c2nc(C(=O)N[C@@H]3CCN(Cc4ccccc4)C3)cc3c2[C@H](CCO)N(S(=O)C(C)(C)C)C3)c1 (some centres not stated) | 16.0 | i
Cc1ccc(S(=O)(=O)N(C)C[C@@H]2Oc3cc(C#Cc4ccncc4)ccc3S(=O)(=O)N([C@@H](C)CO)C[C@H]2C)cc1 | 2.1 | i
CC(C)CNC(=O)[C@@H]1c2ccccc2C(=O)N(CC23CC4CC(CC(C4)C2)C3)[C@H]1c1ccc(CO)cc1 | -9.0 | i
COCC1=C([C@H](O)c2ccccc2)[C@H](CO)[C@@H]2C(=O)N(C)C(=O)[C@@H]2C1 | -0.4 | i
O=C(C[C@H]1CC[C@@H]2NC[C@@H](O)COC[C@H]2O1)Nc1nccs1 | 1.3 | i
O=C1NC[C@@H]2CCCN2C1=O | -7.5 | i

Next part:
smiles | MLL AF4-AF9 inh | FGF22 binding
CC(C)N(C(=O)[C@H]1C[C@H](CC(=O)NCc2cccc(C(F)(F)F)c2)C(=O)N2CCc3c([nH]c4cc(CCC(=O)N(C)C)ccc34)[C@]12C)C(C)C | 6.6 | i
Clc1ccc2nc(-c3ccccc3)c(CC3CCCCC3)n2c1 | -1.7 | i
C[C@H](CO)N1C[C@H](C)[C@H](CN(C)Cc2cccnc2)Oc2cc(C3=CCCCC3)ccc2S1(=O)=O | 10.7 | i
C[C@H](O)[C@@H]1C(=O)N2CCc3c([nH]c4ccccc34)[C@@H]2C[C@@H]1N(C)Cc1ccc2c(c1)OCO2 | -0.3 | i
Cc1ccc(-c2ccc([C@@H]3[C@H](CO)N4CCCCN(S(=O)(=O)c5cccc(C)c5)C[C@@H]34)cc2)cc1 | -7.2 | i
CCN(C(=O)CSc1nnc(COc2ccccc2F)n1N)c1c(N)n(Cc2ccccc2)c(=O)[nH]c1=O | 0.7 | i
COc1ccc(Cl)cc1NS(=O)(=O)c1cccc(C(=O)NC2CCN(Cc3ccccc3)CC2)c1 | -1.8 | i
NC(=O)[C@@H]1[C@H]2C(=O)O[C@H](c3ccccc3)[C@H](c3ccccc3)N2[C@H](c2ccccc2OCCO)[C@@]12C(=O)Nc1ccc(C#CCCO)cc12 | 11.9 | i
C#Cc1ccc([C@H]2C=C(C(=O)O)O[C@@H](OCC)[C@@H]2CCCO)cc1 | -5.7 | i
C#CCn1cc(CNC[C@H]2O[C@@H](n3cnc4c(=O)[nH]c(N)nc43)[C@H](O)[C@@H]2O)c2ccccc21 | -0.6 | i
COC(=O)c1ccc2nc(-c3cccc(Br)c3)c(Cc3ccccc3OC)n2c1 | 0.6 | i
COC(=O)[C@@]1(CCC(=O)OC(C)(C)C)N=C(c2ccc(OCCCO)cc2)O[C@H]1c1ccccc1 | 7.9 | i
CCOC(=O)C1CCCN(C(=O)c2cc(C#N)cs2)CC1 (configuration not stated) | 1.9 | i
CC(C)(C)OC(=O)NCCOCCOCCNc1ncnc2ccc(Br)cc12 | -4.4 | i
Cc1csc(=O)n1CCC(=O)OCC(=O)NCc1ccccc1 | -3.1 | i
CO[C@@H]1CN(C)C(=O)c2ccc(NS(=O)(=O)c3ccccc3F)cc2OC[C@@H](C)NC[C@H]1C | -0.3 | i
O=C(c1cccnc1)N1CCCCN2[C@@H](CO)[C@@H](c3ccc(C#Cc4ccccc4)cc3)[C@@H]2C1 | 8.1 | i
CNC(=O)C1=C[C@H](c2csc3ccccc23)C[C@H](OCCCCO)O1 | -1.9 | i
N#C[C@H]1[C@H](c2ccccc2)[C@H](CO)N1C(=O)CN1CCOCC1 | -2.0 | i
O=C1N(Cc2ccccc2)Cc2ccccc2[C@@H]2OC(c3ccc(OCCCO)cc3)=N[C@]12Cc1ccccc1 | 0.6 | i
O=C(c1ccc(F)cc1)N1CCCCN2[C@H](CO)[C@@H](c3ccc(-c4ccc(F)cc4)cc3)[C@@H]2C1 | -5.7 | i
CC1C/C=C/C=C/C=C/C=C/C(O[C@@H]2O[C@H](C)[C@@H](O)[C@H](N)[C@@H]2O)CC2OC(O)(CC(O)CC3OC3/C=C/C(=O)O1)CC(O)C2C(=O)O (some centres not stated) | -3.5 | i
Cc1cc(=O)oc2c3c(cc(OCC(=O)NCC(O)c4ccccc4)c12)OC(C)(C)CC3 (configuration not stated) | -2.3 | i
COc1ccccc1NC(=O)N1CCCCN2[C@H](C1)[C@H](c1ccc(-c3ccccc3)cc1)[C@@H]2CO | -1.3 | i
C[C@H](CO)N1C[C@H](C)[C@H](CN(C)C(=O)C2CC2)Oc2cc(-c3ccc(C#N)cc3)ccc2S1(=O)=O | -11.4 | i
CC1(C(=O)NS(=O)(=O)c2ccc(Cl)s2)CCN1C(=O)C1(c2ccc(Cl)cc2)CC1 (configuration not stated) | 1.0 | i
CCCCC(CC)CN1CN(CC(CC)CCCC)CC(C)(N)C1 (configuration not stated) | -0.1 | i
Clc1ccc(Nc2nnc(-c3ccc4c(c3)OCO4)o2)cc1 | 1.4 | i
CC1=C([C@H](O)c2ccccc2)[C@H](CO)n2c(=O)n(-c3ccccc3)c(=O)n2C1 | 0.1 | i
CC1(C)OC(=O)C2=C(C[C@@H](CCOCc3ccccc3)O[C@H]2c2ccc(F)cc2)O1 | 0.0 | i
COc1cc2cc(OC(C)=O)c3cc4c(cc3c2c(OC)c1OC)OCO4 | -2.5 | i
O=C1N(Cc2ccccc2)Cc2ccccc2[C@H]2OC(c3ccc(OCCCO)cc3)=N[C@@]12CCS(=O)(=O)c1ccccc1 | -1.3 | i
Cc1ccc(S(=O)(=O)N(C)C[C@H]2Oc3c(NC(=O)C4CCCCC4)cccc3C(=O)N([C@@H](C)CO)C[C@H]2C)cc1 | -6.3 | i
C=CCOC(=O)C(=O)/C=C/c1ccc(F)cc1 | -1.8 | i
CC1=C(C(=O)N2CCOCC2)CC(CC(=O)NCCc2ccccn2)C(=O)N1CCCN1CCCC1=O (configuration not stated) | -2.0 | i
O=C(Nc1ccc(N2CCOCC2)cc1)c1csc(COCCO)n1 | -1.7 | i
COc1ccccc1NC(=O)N1C[C@@H](C)[C@H](OC)CN(C)C(=O)c2ccc(NC(=O)c3ccccn3)cc2OC[C@H]1C | -2.0 | i
CC1=C(C(=O)N(C(C)C)C(C)C)CC(CC(=O)NC2CC2)C(=O)N1Cc1ccc(C(C)(C)C)cc1 (configuration not stated) | 0.0 | i
CN(C)CC#Cc1cccc(-c2nc(C(=O)N3CCN(C)CC3)cc3c2[C@@H](CCO)N(S(=O)C(C)(C)C)C3)c1 (some centres not stated) | -4.0 | i
COC1=CC(=O)c2c(ccc3ncnc(N)c23)C1=O | -4.9 | i
CC(C)(O)c1cn([C@@H]2C[C@@H]3O[C@H](CO)CC[C@@H]3O[C@@H]2CCc2ccc(-c3cccnc3)cc2)nn1 | -0.4 | i
C=CC[C@@]1(C(=O)OC)N=C(c2ccc(OCCCO)cc2)O[C@@H]1c1ccccc1 | 0.6 | i
C=CCCN(CC#C[C@H]1Oc2ccccc2S(=O)(=O)N2CCC[C@@H]12)S(=O)(=O)c1ccc(C)cc1 | -4.5 | i
COc1cc2c(cc1OC)CN(C(=O)[C@@H]1[C@H]3C(=O)O[C@H](c4ccccc4)[C@H](c4ccccc4)N3[C@H](c3ccc(OCCO)cc3)[C@@]13C(=O)Nc1ccc(C#CC4(O)CCCCCC4)cc13)CC2 | -1.5 | i
C=CCN1C(=O)[C@@]2(O[C@@H](CCO)[C@H]([Si](C)(C)c3ccc(OC)cc3)[C@H]2C)c2cc(N3CCOC3=O)ccc21 | -11.7 | i
COc1ccc(NC(=O)N2CCCCN3[C@@H](CO)[C@@H](c4ccc(C#Cc5ccccc5)cc4)[C@@H]3C2)cc1 | 20.8 | i
COC(=O)c1ccc2nc(-c3ccc(F)cc3)c(CC3CCCCC3)n2c1 | -3.9 | i
COC(=O)c1cn(CCCNC(=O)[C@H](Cc2ccccc2)NS(=O)(=O)c2ccc(C)cc2)nn1 | 0.7 | i
N#Cc1cnn(-c2cc(Cl)ccc2Cl)c1N | -1.1 | i
Cc1noc(C)c1NC(=O)N(C)C[C@@H]1Oc2c(NC(=O)Nc3ccc(C(F)(F)F)cc3)cccc2C(=O)N([C@@H](C)CO)C[C@H]1C | -2.4 | i
COc1ccc(CN(C)CC(=O)NC(=O)Nc2ccccc2F)cc1 | -5.6 | i
Cc1ccc(S(=O)(=O)N2CCC(=O)N([C@H](COCc3ccccc3)C(C)C)CC2)cc1 | -0.1 | i
C[C@H]1CN([C@@H](C)CO)C(=O)c2cccc(NS(=O)(=O)c3ccc(Cl)cc3)c2O[C@H]1CN(C)Cc1ccc(-c2ccccc2)cc1 | 1.8 | i
CCc1nc2c(OCc3ccc(Cl)cc3Cl)cccn2c1N(C)C(=O)CC(C)C | 6.5 | i
COc1cc(CNc2ncnc3c2ncn3[C@H]2CN(Cc3ccc(C(=O)O)cc3)C[C@@H](CO)O2)cc(OC)c1OC | 0.3 | i
COCCOC(=O)N1C(=O)[C@@]2(c3cc(C#CCC(C(=O)OC)C(=O)OC)ccc31)[C@H](C(=O)Nc1nc3ccccc3s1)[C@H]1C(=O)O[C@H](c3ccccc3)[C@H](c3ccccc3)N1[C@@H]2c1ccccc1OCCO | -4.3 | i
CC1=C(C(=O)N2CCCCCC2)CC(CC(=O)NCCc2ccccn2)C(=O)N1Cc1ccc(F)cc1 (configuration not stated) | -1.3 | i
COc1ccccc1C#Cc1ccc([C@@H]2[C@H]3CN(C(=O)C4CCCC4)CCCCN3[C@H]2CO)cc1 | -3.5 | i
C[C@@H]1CN([C@H](C)CO)C(=O)c2cc(NS(=O)(=O)c3cn(C)cn3)ccc2O[C@@H](C)CCCCO[C@H]1CN(C)S(=O)(=O)c1cccs1 | -0.2 | i
C[C@@H]1CN([C@H](C)CO)C(=O)c2cc(NC(=O)c3ccncc3)ccc2O[C@@H]1CN(C)Cc1ccc2c(c1)OCO2 | -0.2 | i

Next section
smiles | MLL AF4-AF9 inh | FGF22 binding
OC[C@H]1[C@H](c2ccc(C#CC3CC3)cc2)[C@H]2CN(CCC(F)(F)F)CCCCN21 | 9.1 | i
COc1cccc(COC(=O)C(Cc2ccccc2)NC(=O)c2ccco2)c1 (configuration not stated) | 0.5 | i
CNC(=O)C1=C[C@H](c2csc3ccccc23)C[C@H](OCc2ccc(CO)cc2)O1 | -0.2 | i
CCC1CCCCN1C(=S)NN=C(C)c1ccccn1 (configuration not stated) | 37.4* | i
CCc1ccccc1NC(=O)CN1CCN(C(=O)CN2C(=O)NC3(CCCC3)C2=O)CC1 | 0.2 | i
Cc1cc2oc(=O)cc(CN3CCCCC3)c2cc1Cl | -1.2 | i
CO[C@H](CN(C)Cc1cc(F)ccc1F)[C@H](C)CN(C(=O)Nc1ccc(C(F)(F)F)cc1)[C@@H](C)CO | 1.3 | i
CCCNC(=O)[C@@]1(C)c2ccccc2C(=O)N(Cc2ccc(OC(F)(F)F)cc2)[C@H]1c1ccc(CO)cc1 | -1.8 | i
COc1ccccc1-c1ccc2c(c1)C(C)(Cc1ccc(F)c(Cl)c1)C(=O)N2 (configuration not stated) | -6.8 | i
Cc1ccc(S(=O)(=O)N2CCC(=O)N([C@H](COCc3cccc(C(F)(F)F)c3)C(C)C)CC2)cc1 | -3.0 | i
COc1ccc(S(=O)(=O)N2CCN(C(=O)c3cccc(S(=O)(=O)N4CCCC4)c3)CC2)cc1 | -6.0 | i
COc1ccc(NC(=O)Nc2ccc3c(c2)C(=O)N([C@@H](C)CO)C[C@@H](C)[C@H](CN(C)Cc2ccc(C(F)(F)F)cc2)OCCCC[C@H](C)O3)cc1 | -2.8 | i
O=C1N(CCS(=O)(=O)c2ccccc2)Cc2ccccc2C[C@@]12N=C(c1ccc(OCCCO)cc1)O[C@H]2c1ccccc1 | 4.3 | i
